# NPR1 antag: antagonists of human natriuretic peptide receptor Npr1; P16066; HEK293 hNpr1 GloSensor cGMP, ANP-stimulated luminescence; Potency, µM (titrated, usually from 46.3 µM), for the others: top-dose activity change, negative = inhibition, actives largely listed as inhibitors; hit rate 1.6% among 76,000; active = well fitted inhibition curve with a large enough effect; inconclusive = small, poorly fitted or top-dose-only effect; inactive = no such curve, though single readings can be large or run the other way;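 also: nearly all actives have a fitted effect of over 60% in size; nearly all hits also lower the signal before the agonist is added; a reference antagonist and vehicle were the controls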
# Target sequence (P16066 whole entry, looked up): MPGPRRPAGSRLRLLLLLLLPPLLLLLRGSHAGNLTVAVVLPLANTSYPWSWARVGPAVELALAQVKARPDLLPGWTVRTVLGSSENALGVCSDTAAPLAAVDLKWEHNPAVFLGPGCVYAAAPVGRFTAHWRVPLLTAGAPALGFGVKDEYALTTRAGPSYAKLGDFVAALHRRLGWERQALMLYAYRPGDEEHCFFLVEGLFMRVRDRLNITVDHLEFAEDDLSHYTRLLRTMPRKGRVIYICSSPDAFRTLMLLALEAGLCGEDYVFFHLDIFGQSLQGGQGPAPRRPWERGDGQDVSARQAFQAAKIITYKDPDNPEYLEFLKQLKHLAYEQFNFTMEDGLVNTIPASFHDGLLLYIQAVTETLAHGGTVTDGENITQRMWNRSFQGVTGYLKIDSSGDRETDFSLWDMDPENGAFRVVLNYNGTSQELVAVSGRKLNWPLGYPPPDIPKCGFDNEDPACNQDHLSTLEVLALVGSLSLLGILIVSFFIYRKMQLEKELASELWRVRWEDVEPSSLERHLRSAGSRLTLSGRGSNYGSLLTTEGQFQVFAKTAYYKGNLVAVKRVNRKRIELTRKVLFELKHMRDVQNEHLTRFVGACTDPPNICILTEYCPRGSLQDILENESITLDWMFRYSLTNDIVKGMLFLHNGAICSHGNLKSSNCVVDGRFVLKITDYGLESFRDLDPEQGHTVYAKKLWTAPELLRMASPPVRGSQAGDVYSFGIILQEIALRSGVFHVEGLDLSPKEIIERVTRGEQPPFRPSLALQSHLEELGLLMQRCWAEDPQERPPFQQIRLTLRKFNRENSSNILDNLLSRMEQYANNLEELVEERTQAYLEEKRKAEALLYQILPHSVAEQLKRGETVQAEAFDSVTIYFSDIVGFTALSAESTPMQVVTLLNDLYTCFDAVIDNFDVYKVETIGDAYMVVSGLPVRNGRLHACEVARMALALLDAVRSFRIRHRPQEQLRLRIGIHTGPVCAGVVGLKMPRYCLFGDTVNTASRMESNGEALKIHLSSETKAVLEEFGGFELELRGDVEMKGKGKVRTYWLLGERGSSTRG
#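 HEK293 cells stably expressing human Npr1 and cGMP GloSensor pGS-40F, loaded 2 h with 2% GloSensor reagent, given compound 30 min at room temperature. Luminescence read before and 20 min after 0.1 nM hNppA.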
# * marks the source's active call; other numbers are inactive results; ? = inconclusive; & = joins results of further samples; [ ] = another dose, or the depositor's remark. % is scaled to controls: 0 for no effect and ±100 for the full control effect; potency is read from the fitted curve at half-maximal effect. This is a subset; the hit share may differ from the screen's.
SMILES,NPR1 antag
Nc1nnnn1CC(=O)NCc1cccnc1Oc1ccc(F)cc1F,0%
O=C(NCc1ccc(F)cc1)c1nc(-c2ccc(F)cc2)c2ccccn12,3%
COc1ccc(CN2CC3(CCN(S(=O)(=O)Cc4ccccc4)CC3)C2=O)cc1,-21%
CCCN1CCc2[nH]cnc2C12CCN(C(=O)c1ccc(CC)s1)CC2,4%
O=C1NCCCCCCN(S(=O)(=O)c2cccs2)[C@H]2CCCC[C@@H]12,-12%
C[C@@H]1CN(Cc2nc3c(n2Cc2ccccc2)C(=O)N(CC2CC2)CCN3)C[C@H](C)O1,-1%[70.6 µM]
O=c1c2nc(NCCOc3ccccc3)ccc2ncn1Cc1ccccc1,-11%[70.6 µM]
COC[C@@H]1CN(S(=O)(=O)c2ccc(C)cc2C)C[C@H]1C(N)=O,-14%
CNCC(=O)N1CCc2nc(N)nc(NCc3ccccc3F)c2CC1,-3%
COc1cccc(CC(=O)N2CCC3(CC2)CC(Cc2nc(-c4ccncc4)no2)CCO3)c1 (configuration not stated),?
O=C(c1cccc2cnccc12)N1CCCC2(C=Cc3ccccc3O2)CC1 (configuration not stated),-23%
CN(C)CC1(O)CCC2(CCN(S(=O)(=O)c3ccc(F)cc3)CC2)CC1,2%
O=C1CC(c2ccccc2)N(S(=O)(=O)c2ccccc2)CCCCCN1 (configuration not stated),0%
CCCNC(=O)N1CCCN(S(=O)(=O)c2ccccc2)CCC(=O)NCC1,1%
CN(C(=O)Cc1c[nH]c2ccccc12)C1CCc2nn(CC3CC3)c(=O)n2CC1 (configuration not stated),5%
COc1ccc(-c2nn(-c3ccccc3)cc2CN2CCCC(CO)C2)c(F)c1 (configuration not stated),-2%
COc1cccc2c1OCC(CNC(=O)CCc1c(C)noc1C)C2 (configuration not stated),-1%
NC(=O)c1ccc(NC(=O)c2cc3n(n2)CC(c2ccc(Br)cc2)OC3)cc1 (configuration not stated),?
COCCc1nncn1C1CCN(C(=O)c2cc(F)ccc2F)CC1,-5%
CC(C)NC(=O)N[C@H]1C[C@@H](C(=O)N[C@H](Cc2c[nH]c3ccccc23)C(N)=O)N(C(=O)c2cccn2C)C1,1%
O=C(Nc1ccccc1)C1=NO[C@@H]2CN(Cc3cc(F)ccc3F)C[C@H]12,?
Cc1nnsc1C(=O)N[C@H]1CCN(C(=O)c2ccco2)[C@H](C(=O)N[C@H](Cc2ccccc2)C(N)=O)C1,-3%
O=C(O)CC1COCCN1C(=O)Cn1cnnn1 (configuration not stated),3%
Cc1cn2nc(C(=O)NCCc3ccc(S(N)(=O)=O)cc3)cc2c(N2CCCC2)n1,11%
Cc1nnc2n1CCC(N(C)C(=O)c1ccc3c(c1)OCO3)CC2 (configuration not stated),5%
COCCn1ccc2c(C3=CCOCC3)nc(-c3cccc(NC(C)=O)c3)cc21,-5%[70.6 µM]
Cc1ncsc1C1N(C2CCN(Cc3ccccc3)CC2)C(=O)C12CCCC2 (configuration not stated),1%
CC(C)(O)CCc1cccc(C(=O)NCC(O)c2ccncc2)c1 (configuration not stated),3%
Cc1ccc(Cn2c(C3CCN(C(=O)c4ccccc4)CC3)n[nH]c2=O)cc1,1%
CC(C)NC(=O)N1CCCCCC1CN1CCOCC1 (configuration not stated),-1%
CCc1cc(=O)n(CC(=O)N2CCN(c3ccc(OC)cc3)CC2)c(-c2ccccc2)n1,5%
CCc1noc(-c2cccn3c(CNC(=O)COc4ccccc4)nnc23)n1,-14%
COc1ccc2[nH]c(C(=O)NC3CCc4nn(C)c(=O)n4CC3)cc2c1 (configuration not stated),8%
O=C(c1ccc(F)cc1)N1CCC(Cc2nncn2-c2ccccc2)CC1,0%
CNC(=O)[C@@H]1CN(Cc2ccc3c(c2)CCO3)C[C@H]1c1nc(COC)no1,4%
O=C(Cn1ccn2nc3c(c2c1=O)CCCC3)NCCC1=CCCCC1,0%

# Among those listed so far, five contain an NH in an aromatic ring.
SMILES,NPR1 antag
CCCN1CCc2[nH]cnc2C12CCN(C(=O)c1ccc(CC)s1)CC2,4%
CN(C(=O)Cc1c[nH]c2ccccc12)C1CCc2nn(CC3CC3)c(=O)n2CC1 (configuration not stated),5%
CC(C)NC(=O)N[C@H]1C[C@@H](C(=O)N[C@H](Cc2c[nH]c3ccccc23)C(N)=O)N(C(=O)c2cccn2C)C1,1%
Cc1ccc(Cn2c(C3CCN(C(=O)c4ccccc4)CC3)n[nH]c2=O)cc1,1%
COc1ccc2[nH]c(C(=O)NC3CCc4nn(C)c(=O)n4CC3)cc2c1 (configuration not stated),8%

# The list continues:
SMILES,NPR1 antag
COC(=O)CNC(=O)N1CCC(N2C(=O)C3(CCCC3)C2c2scnc2C)CC1 (configuration not stated),4%
O=C(Nc1cnc(-c2ccccc2)nc1)c1ccco1,-13%
CC(C)CCN1C(=O)CC[C@]2(C(=O)N3CCOCC3)CCCC[C@@H]12,0%
CCn1ccc(C(=O)N2CC[C@H](c3nc(C)no3)[C@H](NC(=O)C3CC3)C2)n1,0%
COCCCNC(=O)N1CCCCCCN(C)C(=O)[C@@H]2CCC[C@@H]21,-2%
O=C(Cn1ccn2nc(-c3ccccc3)c(CO)c2c1=O)Nc1ccccc1F,-13%
CCCCS(=O)(=O)N1CCCC(Cn2c(C3CC3)nc3cccnc32)C1 (configuration not stated),-8%
Cc1noc(C)c1CC(=O)N1CCCC(c2nn(C)c(=O)n2C(C)C)C1 (configuration not stated),-2%
O=C(Nc1cccc(Cl)c1)c1cnc2c(c1)N(C(=O)CCc1ccccc1)CCC2,-6%[70.6 µM]
COc1ccccc1CNC[C@H]1O[C@H](Cc2cc(CN(C)C)on2)CC[C@@H]1O,-3%[70.6 µM]
COc1cccc(C(=O)N2CCC(N3CC4CC(C3)[C@H]3CCCC(=O)N3C4)CC2)c1 (some centres not stated),6%
COc1ccc(CNC(=O)[C@@H]2Cc3nc[nH]c3CN2Cc2cc3ccccc3o2)cc1,0%[70.6 µM]

# A second format for 2 compounds above:
compound	NPR1 antag
Cc1noc(C)c1CC(=O)N1CCCC(c2nn(C)c(=O)n2C(C)C)C1 (configuration not stated)	-2%
O=C(Nc1cccc(Cl)c1)c1cnc2c(c1)N(C(=O)CCc1ccccc1)CCC2	-6%[70.6 µM]

# Later entries
SMILES,NPR1 antag
CC(=O)Nc1ccc(-c2c(C3CC3)nn(-c3cccc(C)c3)c2OC(C)=O)cc1,1%
CCN(Cc1cnn(CC)c1)C(=O)c1ccc2c(c1)C(O)CCCCCN2C (configuration not stated),?
Cc1noc(-c2ccccc2Cl)c1C(=O)NCCC(c1ccccc1)c1ccccc1,-5%
Cc1noc(-c2ccc(N3CCC(O)(c4cccnc4)CC3)nc2)n1,-22%
Cc1ccc(CN2CCCC3(CNc4ccccc4[S+](=O)([O-])N3)C2)cc1 (configuration not stated),0%
CN1C[C@H](NC2CCOCC2)CCC[C@@H](C(=O)NCc2cc(F)cc(F)c2)CC1=O,-1%[70.6 µM]
CCc1ccc(NC(=O)c2ccc(Cn3ccn4nc5c(c4c3=O)CCCC5)cc2)cc1,-19%
CC(=O)N1CCCC1c1nc(C2CN(C(=O)CCn3cc(C)cn3)C2)no1 (configuration not stated),5%
CN(C)CC1(O)CCN(C(=O)Cn2cc(C(=O)C3CC3)c3ccccc32)C1 (configuration not stated),-1%
CCCCN1CCN(C(=O)C2(c3ccc(NC(=O)C(C)C)cc3)CCCCC2)CC1,-1%
NC(=O)[C@H](Cc1cccs1)NC(=O)[C@@]1(O)C[C@@H](O)[C@H](O)[C@@H](NC(=O)NC2CCCCC2)C1,0%
C=CCN(C)C(=O)[C@@H]1Cc2cn(Cc3nccn3C)c3cccc(c23)[C@H](CC(C)C)N1,4%[70.6 µM]
CCn1cc(-c2nc3c([nH]2)CC(C)(C)CNC3=O)cn1,6%
O=C1c2cc(N3CCOCC3)nc(-c3cccc(F)c3)c2CN1CC1CC1,-23%[70.6 µM]
Cc1cc(C(=O)N[C@@H]2C[C@H](Cn3cc(CN4CCS(=O)(=O)CC4)nn3)[C@@H](O)[C@H]2O)nn1C,1%
CCCN(CC1CCOC1)S(=O)(=O)c1cccc(C(F)(F)F)c1 (configuration not stated),-13%
Cc1ccc(CNC(=O)CN2C(=O)C(c3ccccc3)=NC23CCCCC3)cc1,-6%
COCCNC(=O)[C@H]1C[C@H](Oc2ccccc2)CN1CC1CC1,4%
CN(Cc1ccccc1F)C1CCc2ccccc21 (configuration not stated),0%&7%[70.6 µM]
C=CCNC(=O)N[C@H]1C[C@H]2C(=O)Nc3ccccc3C(=O)N2C1,0%[70.6 µM]
Cc1ccc(OCCC2CCN(C(=O)CCCC(=O)n3nc(C)c4ccccc43)C2)cc1 (configuration not stated),10µM*
O=C1COc2ccc(-c3ccncc3)nc2CN1CCOc1ccccc1,?
O=C(N[C@@H]1COCC[C@@H]1OCC1CC1)c1conc1-c1ccccc1,-3%
COc1ccc(CN2CCc3nc(C(C)C)nc(-c4ccc(O)cc4)c3C2)cc1,1%
Cc1ccc(-c2ncc(C(=O)N(C)Cc3nc(CC(C)C)no3)c(=O)[nH]2)cc1,0%
COc1ccc(C2Cn3nnc(-c4nc(-c5ccc(Br)cc5)no4)c3CO2)cc1 (configuration not stated),1%
Cc1ccc(S(=O)(=O)N[C@H]2CO[C@H]3[C@@H]2OC[C@H]3OCC(N)=O)cc1,0%[70.6 µM]
Cc1cccc(C(=O)N2CCCN(S(=O)(=O)c3ccccc3)CCC(=O)NCC2)c1,-11%
CC(=O)N1CCc2nn(CC(=O)Nc3ccccc3Cl)c(=O)cc2C1,6%
O=C(Nc1ccccn1)[C@@H]1C[C@@H](c2ccc(F)cc2)N(Cc2ccccc2)C1,?
Cc1cn2nc(C(=O)N3CCN(c4ccccc4)CC3)cc2c(N2CCCC2)n1,7%
Cc1ccccc1S(=O)(=O)N1CCn2c(n[nH]c2=O)C1,4%
CCc1noc(-c2cn(C3CCN(C(=O)c4cc(C)ccc4C)CC3)nn2)n1,-4%
O=C(CCc1ccccc1)N1CCOc2ccc(CN3CCc4ccccc4C3)cc2C1,-3%
O=C(c1cc(-c2ccccc2)n[nH]1)N1CC2CC(C1)[C@H]1CCCC(=O)N1C2 (some centres not stated),-3%
COc1ccc(CC(=O)NC2CCCc3c2[nH]c2ccc(F)cc32)cc1OC (configuration not stated),?

# Ordered by the number under NPR1 antag (lowest first): 3 of the compounds above
SMILES,NPR1 antag
Cc1cccc(C(=O)N2CCCN(S(=O)(=O)c3ccccc3)CCC(=O)NCC2)c1,-11%
COc1ccc(C2Cn3nnc(-c4nc(-c5ccc(Br)cc5)no4)c3CO2)cc1 (configuration not stated),1%
Cc1ccccc1S(=O)(=O)N1CCn2c(n[nH]c2=O)C1,4%

# (more compounds)
SMILES,NPR1 antag
CN(C)S(=O)(=O)CCCN1CC[C@@H](NC(=O)c2ccccn2)[C@H](O)C1,5%
O=C(c1cccs1)C1CCCN(Cc2nc(CCc3ccccc3)no2)C1 (configuration not stated),-21%
CCCN(CC1CCOC1)S(=O)(=O)c1ccc(F)c(C)c1 (configuration not stated),5%
Cc1nc([C@@H]2CN(C(=O)c3ccc(Br)o3)C[C@H]2C(N)=O)n[nH]1,-1%
CC(C)n1cc(CN(C)C(=O)c2cc(COc3ccccc3)on2)cn1,0%
Cn1c(Cn2cccn2)nnc1C1CCCN(c2nccc(N)n2)C1 (configuration not stated),1%
COc1ccc(C(=O)N2CCC3(CC2)CC(=O)c2ccccc2O3)cc1,-3%
CC1(COc2cccnc2)COc2ccc(C(=O)NCc3cnccn3)cc2N1 (configuration not stated),-2%[70.6 µM]
Cc1cccc(CN2CCn3c(nnc3[C@@H]3C[C@@H](O)CN3Cc3cccnc3)C2)c1,4%
Cc1ccc(-c2nc(C(=O)N3CCN(c4ccc(Cl)cc4)CC3)no2)cc1,?
O=C1[C@@H]2C[C@@H](O)CN2C2(CN(Cc3ccccc3Cl)C2)C(=O)N1Cc1ccccc1F,2%
COc1ccc(C(=O)N2CC[C@H]3C(=O)NCCCCCCN(Cc4ccncc4)[C@@H]3C2)c(OC)c1,9%
O=C(CCC1CCCN(S(=O)(=O)c2ccccc2)C1)NC1CCS(=O)(=O)C1 (configuration not stated),0%
c1ccc(CCCCn2ccnc2-c2cc3n(n2)CCCNC3)cc1,0%
Cc1noc(C)c1C(=O)N[C@@H]1CN(c2ccncn2)C[C@H]1CN(C)C,0%
CN(Cc1ccccc1)C(=O)[C@@H]1Cc2nc[nH]c2CN1C,1%[70.6 µM]
OC[C@@H]1CN(Cc2cccnc2)C[C@H]1c1ccncc1,-1%
O=C1COC[C@H]([C@H](O)c2ccc(NC(=O)c3ccccc3)cc2)N1,1%[70.6 µM]
CN1C(=O)COC[C@@H]1[C@H](O)c1ccc(NC(=O)c2cccc(C#N)c2)cc1,0%[70.6 µM]
CN(Cc1cccnc1)C(=O)c1cn(Cc2ccccc2C(F)(F)F)nn1,-1%
Cc1ccc(CNC(=O)N2CCCN(S(=O)(=O)c3ccccc3)CCC(=O)NCC2)cc1,-10%
CC(=O)Nc1ccc(-c2ccc(=O)n3c2[C@@H]2C[C@@H](CN(S(=O)(=O)c4ccc(F)cc4)C2)C3)cc1,-4%
O=C(N1CCC(C(=O)N2CCc3ccccc32)CC1)N1CC2CC(C1)[C@H]1CCCC(=O)N1C2 (some centres not stated),3%
CNC(=O)[C@@H](c1ccccc1)N1CCC[C@H]1C(=O)NCCc1c[nH]c2ccccc12,2%[70.6 µM]
CC(C)Oc1cccc(-c2nnc(CCC(=O)NCCc3cccs3)c(=O)[nH]2)c1,-12%
COc1ccc(CN2CC3(CCN(C(=O)Nc4ccccc4F)CC3)C2=O)cc1,2%
Cc1cccc(CNC(=O)CCn2ccn3nc4c(c3c2=O)CCCC4)c1,4%
O=C1C(N2CCN(Cc3cccnc3)CC2)CCN1CCc1ccccc1 (configuration not stated),0%
NC(=O)[C@@H](Cc1c[nH]c2ccccc12)NC(=O)[C@@H]1CN(C(=O)Nc2ccccc2)CCN1C(=O)c1cccs1,-1%
Cc1cc(C)cc(NC(=O)N2CCC(OC3CCN(S(C)(=O)=O)CC3)CC2)c1,5%

# Assay outcomes from PubChem BioAssay.
